CSC inhib: cancer stem cell inhibition; cancer stem cell-like cells viability, luminescence; inhibition, % at 7.5 µM; 300,000 compounds, 1.1% hits; AID 2717;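 active = mean at 75% or more and at least half the replicates too; tested in HMLE shEcad cells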;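 note: 0% = median of negative and 100% = median of positive control wells; the first replicate is given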
eIF4H FP inh: inhibitors of RNA binding by human eIF4H | eIF4H fluorescence polarization binding assay | inhibition, % at 35 µM | 290,000 compounds, 0.94% hits | Q15056 | AID 2012;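 active = 50% or more with normal probe brightness, or confirmed in later tests; about a fifth of its hits are not listed in these tables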;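 note: calls also rest on retests at 20 µM and on dose response follow-up; 0% = protein and probe with vehicle and 100% = probe without protein; strong numbers were not always called active; many hits fall short of the cut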
HIV Env fusion: inhibitors of HIV Env-mediated cell fusion | HeLa-JRFL Env/CEM21 cell fusion, luciferase | inhibition, % at 12.3 µM | 360,000 compounds, 1.1% hits | AID 651610;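 active = mean replicate inhibition score of at least 50 and every replicate individually at or above 50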;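 note: 0% = plate neutral controls and 100% = maraviroc near 300 nM; one replicate is shown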
PABP FP inh: blocks human PABP binding to poly(A) RNA; P11940; fluorescence polarization; inhibition, % at 35 µM; 290,000 compounds, 1% hits; AID 2014;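 active = 50% or more with normal probe brightness, or confirmed in later tests; about a fifth of its hits are not listed in these tables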;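 note: calls also rest on retests at 20 µM and on dose response follow-up; controls were probe without protein and protein plus probe with vehicle; some compounds called inactive have numbers as strong as hits; many hits fall short of the cut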
Yeast UUG start: yeast start codon fidelity modulation. S. cerevisiae UUG-firefly luciferase reporter, luminescence/redox ratio. activity score, % at 18.7 µM. 350,000 compounds, 0.13% hits. AID 602363;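 active = replicate mean at a twofold rise or more, about +100% in these data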;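 note: firefly luciferase made from a UUG start codon reports start codon fidelity; reporter light over untreated wells divided by growth signal over untreated wells; some hits fall short of that in this replicate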
Rce1 inh: blocks yeast Ras-converting enzyme; 290,000 compounds, 0.27% hits; calls only; yeast membranes, quenched prenylated peptide cleavage fluorescence; Q03530; AID 2563;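 active = fall in fluorescence gain of 50% or more versus controls, with final raw signal at or below 3038400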;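 note: plate controls were neutral control wells for no effect and wells lacking membranes for full effect; tested at 10 µM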
Target sequence (Q03530 whole entry, looked up): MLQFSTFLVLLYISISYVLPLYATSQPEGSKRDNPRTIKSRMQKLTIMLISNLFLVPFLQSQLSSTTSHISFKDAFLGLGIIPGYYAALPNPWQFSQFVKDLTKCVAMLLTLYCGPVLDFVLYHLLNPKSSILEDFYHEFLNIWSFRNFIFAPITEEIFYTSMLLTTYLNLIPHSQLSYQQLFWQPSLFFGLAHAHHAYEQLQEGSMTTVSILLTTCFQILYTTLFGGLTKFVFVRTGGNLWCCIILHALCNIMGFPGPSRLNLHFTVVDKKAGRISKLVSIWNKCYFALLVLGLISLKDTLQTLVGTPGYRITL
MT1-MMP act inh: inhibitors of human MT1-MMP activation; GFP/RFP ratio change, % at 20 µM; P50281; AID 651647; HT1080 RFP-PRO-GFP cells, GFP/RFP ratio fluorescence, overnight; percent of plate control window, DMSO zero; 360,000 compounds, 0.061% hits;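 active = GFP/RFP ratio change of at least 30% with cell ATP level not reduced by more than half and red fluorescence within 50% of control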; note: strong numbers were not always called active
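system = RFP-PRO-GFP reporter HT1080 cells | dosing = 20 µM single dose, 1% DMSO | timing = overnight cell settling, then overnight compound exposure, 37 °C, 5% CO2 | read-out basis = GFP/RFP fluorescence ratio | controls = DMSO and RFP-L50D-GFP cell wells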
MT1-MMP act inh RFP: recorded beside MT1-MMP act inh, whose call it bears; RFP signal change, %; measured here: RFP expression control read;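 0 = vehicle wells; hits needed this value within 50% of zero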
Numbers without * were called inactive; i = inactive; nt = not tested or not shown.

Compound	CSC inhib	eIF4H FP inh	HIV Env fusion	PABP FP inh	Yeast UUG start	Rce1 inh	MT1-MMP act inh	MT1-MMP act inh RFP
COc1cc(C(=O)NCC(=O)N/N=C/c2ccco2)cc(OC)c1OC	-19.6	-7.5	-5.1	-2.4	-7.2	i	0.9	2.1
CCc1ccc(OCCn2ccnc2)cc1	-7.8	9.4	-6.6	-6.9	-11.5	i	5.4	-1.0
COc1ccc(-c2nnn(Cc3ccccc3)n2)cc1	3.8	13.1	-49.0	-0.6	-12.5	i	4.6	-0.3
CC(=O)Nc1ccc(NC(=O)CSc2nc3ccccc3o2)cc1	nt	2.5	nt	1.4	-10.3	i	2.1	3.9
CCCCc1ccc(NC(=O)N2CCN(c3cc(C)nc4ccccc34)CC2)c(C)c1	60.5	-1.9	nt	1.8	-1.7	i	-4.2	-16.6
O=C(Nc1ccc2oc(-c3ccccc3Cl)nc2c1)c1ncn[nH]1	-7.4	17.6	nt	13.8	-7.5	i	-4.4	2.1
COc1ccc([C@H]2CC(=O)C=C(c3cc(C(F)(F)F)cc(C(F)(F)F)c3)C2)cc1	33.7	nt	-4.4	nt	4.8	nt	5.7	-3.8
CCOc1ccc(C(=O)NCCCN2CCOCC2)cc1OCC	-3.0	-1.8	-5.3	-19.9	1.3	i	1.9	2.0
O=C(Nc1ccc(C2CCCCC2)cc1)C1CCCN(c2ncccn2)C1 (stereo unspecified)	-4.8	0.1	-22.8	-12.9	-9.6	i	2.7	-1.9
CCOC(=O)N1CCN(C(=O)Cn2cc3c(n2)CCCC3)CC1	-14.4	-4.4	nt	-6.1	-2.8	i	5.3	0.8

Sorted by length of the SMILES (ascending): five of the compounds above
Compound	CSC inhib	eIF4H FP inh	HIV Env fusion	PABP FP inh	Yeast UUG start	Rce1 inh	MT1-MMP act inh	MT1-MMP act inh RFP
CCc1ccc(OCCn2ccnc2)cc1	-7.8	9.4	-6.6	-6.9	-11.5	i	5.4	-1.0
CCOc1ccc(C(=O)NCCCN2CCOCC2)cc1OCC	-3.0	-1.8	-5.3	-19.9	1.3	i	1.9	2.0
CC(=O)Nc1ccc(NC(=O)CSc2nc3ccccc3o2)cc1	nt	2.5	nt	1.4	-10.3	i	2.1	3.9
COc1cc(C(=O)NCC(=O)N/N=C/c2ccco2)cc(OC)c1OC	-19.6	-7.5	-5.1	-2.4	-7.2	i	0.9	2.1
COc1ccc([C@H]2CC(=O)C=C(c3cc(C(F)(F)F)cc(C(F)(F)F)c3)C2)cc1	33.7	nt	-4.4	nt	4.8	nt	5.7	-3.8

New compounds follow:
Compound	CSC inhib	eIF4H FP inh	HIV Env fusion	PABP FP inh	Yeast UUG start	Rce1 inh	MT1-MMP act inh	MT1-MMP act inh RFP
COC(=O)c1cc(C)sc1NC(=O)CCCC(=O)O	-8.8	-0.6	-2.5	12.9	9.5	i	-1.3	3.4
CCOc1ccc(CNCCc2ccc(S(N)(=O)=O)cc2)cc1	-7.2	9.8	10.5	-2.0	nt	i	3.2	4.3
O=C(Cc1c(O)c2ccccc2oc1=O)c1ccc(F)cc1	-19.7	nt	nt	nt	-19.7	nt	-0.5	-8.0
COc1cc(NC(=O)c2ccc(C)cc2)c(OC)cc1NC(=O)CN1CCOCC1	-14.6	-5.7	nt	-0.2	nt	i	5.2	7.9
Cc1nc(-c2ccc(S(=O)(=O)NCC3CCN(C(=O)OC(C)(C)C)CC3)s2)cs1	-13.6	-3.1	7.6	-8.2	nt	i	4.0	-6.2
Cc1cc(C)c(-c2csc(NC(=O)/C=C/c3cccs3)n2)c(C)c1	28.5	-11.6	62.5*	0.9	-19.6	i	-70.1	-54.8
O=C(NNC(=O)c1ccccc1O)c1ccc(S(=O)(=O)Nc2ccccc2F)cc1	25.5	nt	-8.0	nt	2.6	i	5.7	-2.3
Cc1cc(NC(=O)Nc2ccc(F)cc2)no1	6.1	-6.5	nt	-7.4	nt	i	7.7	3.1
Cc1cc(NC(=O)Cn2nnc3sc4c(c3c2=O)CCCC4)no1	-10.7	-10.2	-3.3	6.5	-4.9	i	-4.1	1.8
O=C(c1ccccc1)c1cccn1CC(=O)N1CCN(c2ccc(F)cc2)CC1	-4.8	0.4	nt	-5.0	-2.4	i	2.4	1.2

Arranged by value in Yeast UUG start (smallest number first): three of the compounds above.
compound	Yeast UUG start
O=C(c1ccccc1)c1cccn1CC(=O)N1CCN(c2ccc(F)cc2)CC1	-2.4
O=C(NNC(=O)c1ccccc1O)c1ccc(S(=O)(=O)Nc2ccccc2F)cc1	2.6
COC(=O)c1cc(C)sc1NC(=O)CCCC(=O)O	9.5

Additional records
Compound	CSC inhib	eIF4H FP inh	HIV Env fusion	PABP FP inh	Yeast UUG start	Rce1 inh	MT1-MMP act inh	MT1-MMP act inh RFP
CCOC(=O)CSc1nc(C)c(C(C)=O)cc1C(N)=O	-10.2	-1.6	8.9	0.4	-15.4	i	0.9	0.0
COC(=O)c1cc(S(=O)(=O)N2CCC(c3ccccc3)C2)c[nH]1 (stereo unspecified)	-6.3	11.9	-5.7	7.0	-20.0	i	2.5	-11.5
COc1ccc(CCNC(=O)CSc2nnc(NC(C)=O)s2)cc1OC	-3.7	6.9	-3.7	-2.5	nt	i	2.9	5.9
CN(C)C1=NC[C@H](Cc2ccccc2)N1CC1CCCCC1	-1.6	nt	-32.1	nt	-20.0	nt	0.9	-1.0
Cc1c(NS(=O)(=O)c2cc(C(=O)OCC(=O)c3ccccc3F)ccc2Cl)c(=O)n(-c2ccccc2)n1C	nt	nt	17.9	nt	-13.5	nt	0.1	-4.1
C/C=C\C=C/C(=O)Nc1cccc(C2=NOC3(C2)C[C@H](C(N)=O)N(C(=O)CC)C3)c1 (stereo partly specified)	-0.4	-1.4	-4.9	13.1	5.6	i	1.9	7.9
CCC(OC(=O)CCc1nc2ccccc2[nH]c1=O)C(=O)c1ccccc1 (stereo unspecified)	-1.9	1.7	-21.6	-1.9	-28.0	i	3.3	0.7
CC(=O)Nc1ccc(NC(=O)Cn2cc3c(n2)CCC(C)C3)cc1 (stereo unspecified)	nt	-4.1	nt	4.2	nt	i	nt	nt
CC(=O)N1CCc2cc(S(=O)(=O)NC(C(=O)Nc3ccc4c(c3)OCCO4)C(C)C)ccc21 (stereo unspecified)	-2.8	5.4	nt	8.3	-16.0	i	4.3	7.4
COc1ccc(OC)c(/C=N/NC(=O)c2cc(-c3ccc(C)o3)nc3ccccc23)c1	-1.3	4.2	-2.9	3.5	-7.0	i	3.5	-2.3
COc1ccc(NC(=O)c2cnc(C)cn2)cc1-n1cnnn1	-14.0	-2.4	nt	-14.9	-8.1	i	4.9	3.9

Screens: PubChem, several laboratories
